Source: PubChem (several laboratories)
HNF4A DNA FP: change in binding of human HNF4 alpha to DNA | HNF4a-FITC DNA binding, fluorescence polarization, 1 h | P41235 | AID 1224865 | activity change, % at 10 µM | 0.3% of 360,000 active; in the data active = activity change above about 30%, passing the limit was not always enough;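 also: controls were the assay level and a saturating level of protein; the project sought stronger binding though the title names inhibitors; some compounds called inactive have numbers as strong as hits; positive values seem to mean higher polarization but the record does not say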
B2AR ag: activates human beta-2 adrenergic receptor causing internalization | P07550 | 0.43% of 340,000 active | response, % (test concentration not listed) | Am2.2-beta2AR cells, FAP receptor internalization, flow cytometry; reference of the scale not given here | AID 504454;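 active = response above a set limit, near 3 SD of response in nonfluorescent compounds, cut at about 42% in these data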;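 also: stock transfer was 100 nL into about 11 µL; a reference agonist was the positive control; negative values mostly stem from fluorescent compounds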
Target sequence (P07550 whole entry, looked up): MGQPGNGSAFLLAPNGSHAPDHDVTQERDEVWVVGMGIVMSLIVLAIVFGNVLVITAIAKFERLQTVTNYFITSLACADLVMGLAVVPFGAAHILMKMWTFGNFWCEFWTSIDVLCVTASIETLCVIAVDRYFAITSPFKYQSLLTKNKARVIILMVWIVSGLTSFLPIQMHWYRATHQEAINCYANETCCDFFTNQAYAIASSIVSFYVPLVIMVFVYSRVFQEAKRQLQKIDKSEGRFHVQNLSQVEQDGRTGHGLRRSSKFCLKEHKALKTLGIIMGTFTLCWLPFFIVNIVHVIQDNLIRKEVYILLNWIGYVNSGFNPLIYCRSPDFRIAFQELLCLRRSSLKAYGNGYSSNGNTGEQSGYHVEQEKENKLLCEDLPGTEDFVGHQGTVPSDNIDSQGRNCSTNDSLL
Ecoli growth: E. coli growth inhibition; Escherichia coli growth, OD600, 23 h; stronger effect = lower value; OD600 absorbance (test concentration not listed); 0.21% of 330,000 active; AID 1053175;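 active = OD600 absorbance below the run mean of sample wells minus 3.6 SD, in any replicate, cut at about 0.56 in these data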;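 also: stock transfer was 300 nL into about 60 µL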
UCH37 DUB inh: human UCH37 deubiquitinating enzyme inhibition; inhibition, % (test concentration not listed); purified proteasome/UCH37, Ub-AMC cleavage fluorescence; AID 588478; Q9Y5K5; 0.33% of 330,000 active;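 active = mean of two replicates above 20%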;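 also: 0% = compound-free wells with enzyme and 100% = wells lacking proteasome; stock transfer was 100 nL into about 20 µL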
Target sequence (Q9Y5K5 whole entry, looked up): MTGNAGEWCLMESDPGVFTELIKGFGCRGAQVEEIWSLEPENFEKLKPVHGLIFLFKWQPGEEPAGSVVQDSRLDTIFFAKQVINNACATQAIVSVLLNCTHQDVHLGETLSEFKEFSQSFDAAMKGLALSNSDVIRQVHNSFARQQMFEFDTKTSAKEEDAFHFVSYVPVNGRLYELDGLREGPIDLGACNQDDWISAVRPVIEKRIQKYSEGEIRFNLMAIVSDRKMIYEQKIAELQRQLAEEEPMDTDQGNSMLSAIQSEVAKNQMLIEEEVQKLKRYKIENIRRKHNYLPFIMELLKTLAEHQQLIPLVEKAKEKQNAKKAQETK
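System: Proteasome-associated human UCH37 deubiquitinase; Input: 0.15 nM proteasome in added enzyme buffer; Also added: Ub-AMC substrate from 1 µM stock; Incubation: 30 min compound-proteasome preincubation then 25 min substrate reaction, room temperature; Detection: fluorescence, ex 355 nm, em 460 nm; Read-out: % inhibition of Ub-AMC cleavage fluorescence; Benchmarks: no-proteasome and no-compound wells.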
FGF22 binding: binders of recombinant human FGF22 by thermal shift | Q9HCT0 | SYPRO orange fluorescence; percent of sucrose octasulfate shift, DMSO zero | calls only at 9.99 µM | 1.5% of 340,000 active | AID 651658;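 active = melting point raised past a set limit in the mean and every replicate; inconclusive = no clear call; three in four hits are not shown here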
ALR inh: human ALR oxidase inhibition via reduced H2O2. inhibition, % (no concentration beside the values). P55789. 3.8% of 290,000 active. purified ALR, DTT oxidation, H2O2 HRP-luminol luminescence;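 active = mean and each replicate at 75% or more; inconclusive = only one of the two met; inactive = neither met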;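 also: stock transfer was 7.5 nL into about 7.5 µL; 0% = neutral wells and 100% = wells with inactivated enzyme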
Target sequence (P55789 whole entry, looked up): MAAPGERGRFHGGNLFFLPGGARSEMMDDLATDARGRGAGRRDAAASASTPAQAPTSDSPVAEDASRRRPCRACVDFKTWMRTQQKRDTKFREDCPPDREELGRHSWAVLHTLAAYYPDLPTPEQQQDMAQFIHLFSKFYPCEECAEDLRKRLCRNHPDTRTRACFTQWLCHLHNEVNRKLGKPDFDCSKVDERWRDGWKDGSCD
LANA-H2B inh: blocks KSHV LANA binding to histone H2A/H2B; 0.6% of 320,000 active; cell-free LANA-H2A/H2B peptide, fluorescence polarization; Q9QR71; inhibition, % (concentration not given with the values); in the data active = inhibition mostly above about 10%, no sharp cut-off; inactive = mostly below about 6.7%;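 also: stock transfer was 7.5 nL into about 10 µL; 0% = median of vehicle wells and 100% = median of positive control wells; one replicate is shown; the record names a cut of 25% in any replicate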
Starred values were filed as active, the others as inactive; i = inactive; ? = inconclusive; nt = no result given.

SMILES | HNF4A DNA FP | B2AR ag | Ecoli growth | UCH37 DUB inh | FGF22 binding | ALR inh | LANA-H2B inh
CS(=O)(=O)N1CCC(C(=O)Nc2ccc(F)c(Cl)c2)CC1 | -2.3 | 2.2 | 0.598 | 1.1 | i | -1.7 | 2.3
CCCCCCn1c(CN2CCCC(C)C2)nc2c1c(=O)n(C)c(=O)n2C (stereo unspecified) | -2.8 | -7.0 | 0.661 | -2.7 | nt | 0.4 | -1.0
C/C(N)=C(/C#N)C(=O)CSc1nc2ccc(C)cc2[nH]1 | -0.6 | -3.2 | 0.675 | 2.9 | nt | 6.4 | -5.4
O=C(O)c1sccc1S(=O)(=O)N1CCOCC1 | 0.9 | -3.9 | 0.723 | -3.1 | i | 1.1 | -2.7
CS(=O)(=O)Nc1ccc(C(=O)Nc2ccccc2C(=O)N2CCCC2)cc1 | 0.6 | -5.0 | 0.675 | 3.6 | nt | -0.1 | 2.5
Cn1c(Cc2csc(N)n2)nnc1SCC(=O)NCc1ccccc1 | 1.5 | -4.1 | 0.669 | 4.1 | i | -4.5 | -4.8
Cn1c(=O)c2cc(S(=O)(=O)NC(C(=O)Nc3cccc(F)c3)c3ccccc3)ccc2n(C)c1=O (stereo unspecified) | -3.5 | 10.7 | 0.722 | 4.8 | i | -4.7 | 1.3
COc1cc(C)c(-c2[nH]ncc2-c2csc(C)n2)c(O)c1 | 2.3 | 6.1 | 0.707 | 2.2 | i | nt | 7.1
Cc1ccc(C(=O)NC2CCCCCC2)o1 | 3.5 | -0.2 | 0.739 | 1.8 | nt | -0.8 | 7.3
Cc1ncc(CN2CCN(C3CCCC3)C(CCO)C2)s1 (stereo unspecified) | 1.8 | -1.8 | 0.711 | 1.7 | i | -2.8 | -3.4
CCn1c(NC(=O)c2ccccc2)c(-c2cccs2)c(=O)c2ccccc21 | -0.2 | -5.2 | 0.62 | 4.7 | nt | -3.0 | -0.1
O=C(CSc1nc2ccc([N+](=O)[O-])cc2[nH]1)c1ccc2ccccc2c1 | -0.6 | 9.5 | 0.688 | -1.3 | nt | -22.4 | -5.5
COc1ccc(C(=O)Nc2ccccc2)cc1NC(=O)c1ccc([N+](=O)[O-])cc1 | 4.5 | -0.6 | 0.67 | 2.3 | i | -0.6 | -1.0
O=C(NC1CCN(S(=O)(=O)c2ccccc2)CC1)c1ccccc1 | 3.6 | -4.8 | 0.729 | 1.4 | i | -8.8 | -0.5
C=CCN1C(=O)N/C(=C/c2ccc(N3CCOCC3)o2)C1=O | nt | nt | 0.716 | 14.3 | i | 14.8 | 3.2
Cc1cccc(-c2noc(-c3c(C)noc3C)n2)c1 | 1.5 | 0.1 | 0.714 | 3.1 | i | 1.8 | 1.8
COCCn1cc(-c2csc(N)n2)c2ccccc21 | -1.1 | 17.4 | 0.698 | 4.1 | i | -1.2 | 2.3
CCN1CCN(c2ccc(S(=O)(=O)N3CCCCC3)cc2NC(=O)CC(NC(C)=O)c2ccccc2)CC1 (stereo unspecified) | 0.5 | 0.3 | 0.64 | 0.4 | i | 2.0 | -2.3
Cc1ccc(Cl)cc1N1CCN(S(=O)(=O)c2ccc3c(c2)NC(=O)C(C)C(=O)N3)CC1 (stereo unspecified) | -1.8 | 0.5 | 0.753 | 0.3 | i | -5.4 | 1.1
CCN1C(=O)[C@H]2[C@@H](c3ccc(C)cc3)N3C(=O)N(c4ccc(C)cc4)C(=O)[C@@]3(CC)[C@H]2C1=O | -5.0 | -1.1 | nt | 0.9 | i | -14.7 | 0.9

4 compounds already listed, sorted by length of the SMILES, highest first.
SMILES | HNF4A DNA FP | B2AR ag | Ecoli growth | UCH37 DUB inh | FGF22 binding | ALR inh | LANA-H2B inh
CCN1CCN(c2ccc(S(=O)(=O)N3CCCCC3)cc2NC(=O)CC(NC(C)=O)c2ccccc2)CC1 (stereo unspecified) | 0.5 | 0.3 | 0.64 | 0.4 | i | 2.0 | -2.3
Cc1ccc(Cl)cc1N1CCN(S(=O)(=O)c2ccc3c(c2)NC(=O)C(C)C(=O)N3)CC1 (stereo unspecified) | -1.8 | 0.5 | 0.753 | 0.3 | i | -5.4 | 1.1
CCn1c(NC(=O)c2ccccc2)c(-c2cccs2)c(=O)c2ccccc21 | -0.2 | -5.2 | 0.62 | 4.7 | nt | -3.0 | -0.1
COCCn1cc(-c2csc(N)n2)c2ccccc21 | -1.1 | 17.4 | 0.698 | 4.1 | i | -1.2 | 2.3

(next part)
SMILES | HNF4A DNA FP | B2AR ag | Ecoli growth | UCH37 DUB inh | FGF22 binding | ALR inh | LANA-H2B inh
COc1ccc(/C=N/Nc2cc(N3CCOCC3)nc(C)n2)c(OC)c1 | -2.1 | 6.9 | nt | nt | i | 32.1 | -6.3
COc1ccc(NC(=S)N2CCC(c3nc4ccccc4o3)CC2)c(OC)c1 | -0.8 | 1.4 | 0.626 | -0.3 | i | nt | -2.3
COc1ccc([N+](=O)[O-])cc1NC(=O)Cc1ccc(C)cc1 | -8.2 | -3.0 | 0.691 | 5.4 | i | -23.7 | -0.1
COCCNC(=O)Cc1cn(C)c2ccccc12 | -1.5 | 1.2 | 0.713 | 2.3 | nt | 0.4 | -0.7
O=C(Oc1cccc(C(=S)N2CCCCC2)c1)c1ccccc1 | -4.4 | 1.1 | 0.66 | -1.6 | i | -8.0 | -0.6
Cc1nc2sc(C(c3cccc(F)c3)N3CCN(C(=O)c4ccco4)CC3)c(O)n2n1 (stereo unspecified) | 1.4 | -7.9 | 0.73 | 2.2 | nt | 23.0 | 3.1
c1ccc(CCc2nc(-c3ccccn3)no2)cc1 | -2.0 | -14.7 | 0.672 | 4.7 | nt | -4.9 | 6.4
O=C(NN=C1CCC(=NNC(=O)c2ccccn2)CC1)c1ccccn1 | -1.8 | -2.5 | 0.645 | 0.1 | nt | nt | nt
CCOC(=O)c1cc(-c2ccc3c(c2)OCCO3)n[nH]1 | -4.9 | 26.6 | 0.715 | 5.2 | i | 48.1 | 4.2
COC(=O)/C(=C\c1cccnc1)NC(=O)c1ccc(OCc2ccccc2)cc1 | -3.4 | 5.2 | 0.661 | 0.8 | i | -9.2 | 1.6
CCOC(=O)N1CCN(C(=O)c2ccc(CS(=O)Cc3ccccc3Cl)o2)CC1 (stereo unspecified) | -3.4 | -7.9 | 0.71 | 1.6 | i | ? | 1.1
CN(CCc1ccccc1)C(=O)c1ccc(NC(=O)Cc2ccc(NC(=O)C3CCCN(C(=O)C4CC4)C3)cc2)cc1 (stereo unspecified) | 2.0 | 1.4 | 0.698 | 0.9 | i | nt | nt
CC1CC1C(=O)OCC(=O)N(C)CC(=O)Nc1ccc(F)cc1 (stereo unspecified) | 2.2 | -4.4 | 0.645 | -0.5 | i | -1.1 | -4.3
COc1ccc(-c2noc(CCC(=O)NCc3cccnc3)n2)cc1OC | 0.1 | -7.2 | 0.717 | -0.6 | nt | 5.4 | 1.1
COc1ccccc1C(c1nnnn1Cc1ccccc1)N1CCN(C2CCCC2)CC1 (stereo unspecified) | 0.1 | -7.4 | 0.757 | 2.9 | nt | -1.9 | 0.8
Cc1ccc(NC(=O)c2cc3ccccc3o2)nc1 | -0.1 | 10.4 | 0.592 | 2.5 | i | 41.1 | -5.3
CCOC(=O)C1CCCN(C(=O)c2ccc3nc(-c4cccc(OC)c4)oc3c2)C1 (stereo unspecified) | 0.2 | 0.7 | 0.715 | 1.2 | i | 2.1 | 1.0
CCCN1CCN(CCCNC(=O)c2ccc3nc(N4CCC(C)CC4)sc3c2)CC1 | 1.1 | 0.6 | 0.765 | 4.4 | i | 12.8 | -1.7
CN(c1cccc(NC(=O)c2ccc(CN3CCc4ccccc4C3)cc2)c1)S(C)(=O)=O | 3.1 | 12.6 | 0.666 | 0.2 | i | 1.1 | 2.6
Cc1c(C(=O)O)sc2nc3n(c(=O)c12)CCC(C)CC3 (stereo unspecified) | -0.4 | 1.6 | 0.683 | -0.6 | i | -4.6 | 20.1*
Cc1c(C(=O)C(=O)N2c3ccccc3CC2C)c2ccccc2n1C (stereo unspecified) | -3.7 | -24.2 | 0.685 | 3.5 | i | -13.5 | -5.1
S=C1NC(c2ccccc2)=CC(c2ccccc2)N1 (stereo unspecified) | 2.5 | -7.4 | 0.672 | 3.1 | i | -9.1 | 3.4
O=C(c1ccco1)N1CCN(C(=O)c2cc(-c3ccc(F)cc3)no2)CC1 | 1.3 | -2.9 | 0.655 | -0.7 | i | -9.9 | -0.9
Cc1ccc(-c2nn(Cc3ccccc3)cc2/C=C/C(=O)O)cc1C | -1.3 | 31.0 | nt | -2.0 | nt | 8.2 | 1.0
COc1ccc(C(C)=O)cc1CN1C(=O)NC2(CCCCCC2)C1=O | -1.4 | -8.3 | 0.728 | 0.7 | nt | -5.8 | -0.6
CN(N)c1nc(-c2ccccc2)nnc1C(F)(F)F | 0.3 | 1.4 | 0.735 | 1.7 | nt | 2.0 | 3.8
COc1ccc(C2C(C(=O)Nc3cc(OC)c(OC)c(OC)c3)c3ccccc3C(=O)N2C)cc1OC (stereo unspecified) | -5.8 | -3.2 | 0.71 | -0.7 | i | -20.0 | -0.3
Cc1cccc(N2C(=O)C3CC3C2=O)c1 (stereo unspecified) | -1.8 | 4.4 | 0.68 | 3.8 | i | 14.7 | -0.6
CCCC1(c2ccccc2)NC(=O)N(CC(=O)N2CC(=O)Nc3ccccc32)C1=O (stereo unspecified) | -0.7 | -4.6 | 0.662 | 5.0 | i | nt | -3.2
Cc1ccc(C)c(NC(=O)C(C)N2C(=O)c3ccccc3C2=O)c1 (stereo unspecified) | 1.9 | 2.3 | 0.689 | -0.3 | i | 9.7 | 3.0
COC(=O)c1ccc(NC(=O)CSc2nnc(C)n2-c2ccccc2)cc1 | -4.3 | 1.9 | 0.66 | 3.7 | nt | -4.9 | -14.3
Cc1ccc(C)c(N2N=C(C(=O)O)CCC2=O)c1 | 22.3 | 4.0 | 0.678 | 0.6 | i | -2.1 | -2.7
COc1ccccc1CCNC(=O)Cc1cccs1 | -0.2 | -6.3 | 0.686 | 1.6 | i | -3.7 | -3.6
COc1ccc(NS(=O)(=O)c2ccc(N3CCCCC3)c(NC(=O)C(C)NC(N)=O)c2)cc1 (stereo unspecified) | 2.5 | -6.8 | 0.684 | 0.7 | i | 1.3 | 2.8
N#CCC(=O)Nc1ccc(C(=O)OCC(=O)N(Cc2ccccc2)C2CCS(=O)(=O)C2)cc1 (stereo unspecified) | 2.4 | -4.6 | 0.71 | 5.0 | i | 100.0* | -5.4
CC(Oc1cc2oc(=O)c3c(c2cc1Cl)CCC3)C(=O)NCCN1CCOCC1 (stereo unspecified) | -1.7 | -10.5 | 0.691 | -17.5 | i | -16.0 | 1.0
COc1ccc(S(=O)(=O)Cc2ccc(C(=O)NCC(OC)OC)o2)cc1 | 2.9 | 1.6 | 0.679 | 0.8 | i | -28.4 | 2.2
CC(=O)Nc1cccc(C(=O)OC(C(=O)c2ccc(C)c(C)c2)c2ccccc2)c1 (stereo unspecified) | -3.8 | -0.8 | 0.699 | 5.2 | nt | 0.1 | 2.4
O=C(CSc1ccccc1)N1CCN(S(=O)(=O)c2ccccc2)CC1 | 3.2 | 0.9 | 0.716 | 1.2 | i | 28.1 | 1.6
CC(=O)Oc1ccc(OC(C)=O)c(SCCCCCN2CCOCC2)c1 | 9.2 | 0.8 | 0.713 | 3.0 | i | 6.1 | -19.0
N#CCCn1cc(C(=O)Nc2ccccc2Br)c(-c2cc3ccccc3o2)n1 | 3.6 | -10.3 | 0.696 | 4.0 | nt | nt | nt
CCN(CC)CCn1c(C)nc2c(sc3nc4c(cc32)COC(C)(C)C4)c1=O | nt | nt | 0.697 | 4.0 | nt | 3.6 | 2.3
CCCCOc1cccc(C2(C(=O)O)CCCC2)c1 | -2.3 | -6.6 | 0.77 | 4.7 | nt | 13.4 | 2.9
Cc1cccc(OCc2nnc(SCCC(=O)O)n2-c2ccccc2)c1 | -1.7 | 3.4 | 0.674 | 2.2 | i | 4.2 | 1.0
Cn1c(=O)c2[nH]c(SCCN3CCCCC3)nc2n(C)c1=S | -4.2 | -2.0 | 0.655 | 1.5 | i | nt | nt

Only part of the results is shown. The share of hits here may be higher or lower than overall.
